From PubChem BioAssay
StopGo reporter: High Throughput Screening for Foot and Mouth Disease Virus Antivirals; Potency, µM (series often up to 57.9 µM), for the others: at the highest dose signal change, negative = less light; human cells with a luciferase reporter of 2A StopGo recoding; control for the full effect not named in the record; AID 1159524, 2015; 1.2% of 410,000 active; active = well fitted falling curve with a large enough effect; inconclusive = small, poorly fitted or top-dose-only effect; inactive = no such curve, though single readings can be large or run the other way; tested in HEK293T cells; note: nearly all actives have a fitted effect of over 45% in size; luciferase light after 4 h
RE007 growth inh: qHTS Assay for Inhibitors of the HIV-1 protein Vpr. 0.21% of 360,000 active. S. pombe RE007 Vpr strain, BacTiter-Glo ATP luminescence, 24 h; control for the full effect not named in the record. Potency, µM (highest dose often 92.2 µM), inactives show at the highest dose activity change, negative = less growth. AID 651644, 2012; active = well fitted falling curve with a large enough effect; inconclusive = small, poorly fitted or top-dose-only effect; inactive = no such curve, though single readings can be large or run the other way;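 note: nearly all actives have a fitted effect of over 50% in size; the assay follows cell death caused by Vpr and the record does not say whether a fall means rescue or toxicity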
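Fission yeast RE007 carrying one integrated HIV-1 vpr copy, seeded at OD 0.01 in PMG+AL medium with 23 nL pinned compound. Grown 24 h at 30 degrees; viability read by BacTiter-Glo luminescence after 5 min.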
* = called active by the depositor; ? = inconclusive; [ ] = remark or other dose. % is set by controls: 0 for no effect and ±100 for the full control effect; potency is the fitted concentration of half-maximal effect. This is a subset; the hit share may differ from the screen's.

SMILES | StopGo reporter | RE007 growth inh
CC(=O)OC[C@@H]1CN(Cc2ccccc2)C[C@H](n2cnc3c(N4CCOCC4)ncnc32)O1 | 9.8% | 16.9%
O=[N+]([O-])c1cnc[nH]1 | -10.4% | 15.3%[18.4 µM]
O=C(NC(c1ccc(Cl)cc1)c1ccsc1)C1CCN(Cc2cccc(Cl)c2)CC1 (stereo not drawn) | ? | 4.0%
Fc1cc(Cl)ccc1Nc1nc(NCc2ccccc2)nc2ccsc12 | ? | ?
COc1ccc(CN(C)C[C@H]2OCc3cnnn3CCCC(=O)N([C@H](C)CO)C[C@@H]2C)cc1 | -6.1% | -4.0%
Cn1c(=O)c2cc(NC(=S)NCc3ccccc3F)ccc2n1Cc1ccc(F)cc1 | -16.0% | 12.1%
CC1(C)C(=O)N(c2ccccc2)C(=O)c2ccccc21 | -0.8% | 2.4%
COCc1cccc(-c2csc(C(NC(C)=O)c3ccccc3)n2)c1 (stereo not drawn) | -18.5% | 12.5%
O=[N+]([O-])c1ccc2cn(C3OC(CO)C(O)C3O)nc2c1 (stereo not drawn) | 0.0% | 4.4%
CS(=O)(=O)Nc1cccc(NC(=O)C2Cc3c(-c4cccc(C(N)=O)c4)ccnc3O2)c1 (stereo not drawn) | -3.9% | 5.0%
CCN(CC(=O)Nc1ccc(OC)cc1)C(=O)c1cccc(S(=O)(=O)N2CCN(c3ccccc3)CC2)c1 | 0.0% | 3.5%
Nc1cc(S(=O)(=O)c2ccc(N3CCCCC3)c(N)c2)ccc1N1CCCCC1 | -21.2% | -2.5%
Cc1cc(Br)cn2c(Cc3ccsc3)c(-c3cccc(Cl)c3)nc12 | -23.6% | -6.9%
COc1ccc(-c2ccc(C(=O)NCc3ccc(N4CCN(C)CC4)cc3)c3occc23)c(C)c1 | 16.1% | 6.4%
COc1ccc(NC(=S)N2CCC3CC2c2c(Cl)cccc23)c(OC)c1 (stereo not drawn) | 37.9%[activator] | -3.6%
CCCCC1Cc2[nH]c(=S)[nH]c(=O)c2C(c2ccc(Cl)cc2)O1 (stereo not drawn) | -24.9% | 10.2%
CCCc1nc2cc(C)c(Br)c(C)n2c1CC1CCCCC1 | ? | ?
CCOC(=O)c1cccc(C2=C(CNC(=O)c3cccnc3)[C@H]3CC[C@@H](C2)N3Cc2ccccc2)c1 | -9.6% | -28.4%
O=C(/C=C/[C@H]1O[C@@H](n2ccc(=O)[nH]c2=O)[C@H](O)[C@@H]1O)NCCN1CCCCC1 | -12.5% | 1.1%
CCOC(=O)[C@]12CCCC=C1N(Cc1ccco1)C(=O)[C@H](CC(=O)N1CCSCC1)C2 | -12.1% | 6.5%
COc1ccc(Br)c(Cn2c(C)c(C(=O)NCc3cccc([N+](=O)[O-])c3)sc2=O)c1 | -5.1% | 5.0%[18.4 µM]
COc1ccccc1C(NC(=O)C1CCN(CCOc2ccc3ccccc3c2)CC1)c1ccccn1 (stereo not drawn) | -28.7% | -18.1%
COc1cc(C(O)c2nc(-c3ccc(N(C)C)cc3)cs2)ccc1F (stereo not drawn) | -14.2% | -6.6%
O=S(=O)(c1cccnc1)N1CCCC(Nc2ccc(F)c(F)c2)C1 (stereo not drawn) | -9.7% | -10.4%
CN1OC[C@@H]2CN(C(=O)C(C)(C)C)[C@H](c3ccc(-c4cc5ccccc5o4)cc3)C[C@@H]21 | -13.1% | -5.8%
SMILES | StopGo reporter | RE007 growth inh
COc1ccc(CN(C)C(=O)CCNS(=O)(=O)c2ccccc2)c(OC)c1 | -12.1% | -1.2%
COc1ccccc1CCn1cnc(Cc2ccccc2)c1C(C)C | ? | -17.7%
CCOC(=O)CN1C(=O)N[C@@H](c2ccco2)C(C(C)=O)=C1C | 2.6% | -13.7%
N#Cc1ccc(COC(=O)c2ccc3c(c2)OCO3)cc1 | -0.9% | -3.2%
CCCCCCCCN1C(=O)[C@H](CC(=O)N2CCN(C(=O)c3ccco3)CC2)C[C@@]2(C(=O)OC)CCCCC=C12 | -11.9% | -28.8%
O=C(c1cc(COc2cccc3cccnc23)on1)N1CCC[C@H]1CO | 39.6%[activator] | 2.4%
COc1ccccc1-n1cc2ccc([N+](=O)[O-])cc2n1 | 32.9%[activator] | -25.5%
O=c1[nH]c(=O)n([C@H]2C[C@H](O)[C@@H](CO)O2)cc1I | -9.3% | 32.8%[18.4 µM]
O=C(c1cccs1)N1CCN(Cc2nc(-c3ccccc3)no2)CC1 | -6.0% | -7.8%
COc1ccccc1CNc1nc(Nc2ccc(C)cc2C)c2sccc2n1 | ? | -14.1%
CN(Cc1ccccc1)C(=O)C1(C)CCN1C(=O)Cc1ccc(Cl)cc1Cl (stereo not drawn) | -11.9% | 8.4%[18.4 µM]
C[C@H](NC(=O)/C=C/[C@H]1O[C@@H](n2ccc(=O)[nH]c2=O)[C@H](O)[C@@H]1O)C(=O)O | -28.1% | 0.3%
CCOC(=O)C1=C(C)N=c2sc(=Cc3ccc(OCC(=O)O)cc3)c(=O)n2C1c1ccc(SC)cc1 (stereo not drawn) | -19.2% | -1.8%[18.4 µM]
Cc1ccc(C)c(C(O)c2ncc(-c3ccccc3)[nH]2)c1 (stereo not drawn) | 38.9%[activator] | -13.4%
COc1ccc(N)cc1NC(=O)CN1CCOCC1 | -12.5% | -16.5%
CCOC(=O)[C@]12Cc3ccc4ccccc4c3[C@H]1N(Cc1ccccc1)C(=O)c1ccccc12 | 22.4µM* | 8.9%
COc1ccc(C(C(=O)NC2CCCCC2)n2c(=O)c(-c3ccco3)nc3ccccc32)cc1 (stereo not drawn) | 1.8% | -5.2%
CCCCCc1c(-c2ccc(Br)cc2)ncn1CCc1ccccc1OC | ? | ?
CCc1nc2c(=O)[nH]cnc2o1 | -18.7% | -17.4%
O=C1NCCCC1(c1ccccc1)c1ccccc1 | -1.8% | 4.3%
COc1cc(NC(=O)c2ccc(-c3ccc(F)c(F)c3)c3ccoc23)cc(OC)c1OC | -26.9% | -1.5%[18.4 µM]
CC1(C(=O)NC2CCCCC2)CCC(=O)N1CCOc1ccccc1 (stereo not drawn) | -10.2% | 10.9%
COc1cccc(CNc2nc3cc(-c4cscc4C)sc3c(=O)n2C)c1 | ? | -3.5%
O=c1[nH]nc(-c2cc(-c3ccccc3)nc3ccccc23)o1 | -1.2% | -26.5%
CC1(C(=O)NCc2cccc(Cl)c2)Cc2c(-c3ccccc3)ccnc2O1 (stereo not drawn) | -16.6% | 4.7%
SMILES | StopGo reporter | RE007 growth inh
CN(Cc1c(C(=O)N/N=C/c2ccccc2O)nnn1-c1nonc1N)C1CCCCC1 | -18.9% | -25.3%
CCCCc1c(-c2ccc(Cl)cc2)ncn1CCc1ccccc1OC | ? | -20.4%
O=C(Nc1ccccc1)OCCc1ccccc1 | 28.9% | -13.7%
CCOC(=O)[C@]12CCCC=C1N(Cc1ccco1)C(=O)[C@H](CC(=O)N1CCC(c3ccccc3)CC1)C2 | -21.2% | -6.8%
COc1ccc(C(=O)N2CCN(c3nc4cc(C)cc(C)c4cc3C#N)CC2)cc1 | -14.4% | 3.0%
C[C@H](CO)N1C[C@H](C)[C@@H](CN(C)C(=O)c2cccc(F)c2)Oc2cc(-c3cncnc3)ccc2S1(=O)=O | -0.6% | -9.9%
CC1(Cc2ccccc2C#N)C(=O)Nc2ccc(OC(F)(F)F)cc21 (stereo not drawn) | -20.5% | -0.4%[18.4 µM]
CCOc1cc(N2CCOCC2)c(OCC)cc1NC(=O)C(NC(=O)c1c(F)cccc1F)C(C)C (stereo not drawn) | -5.4% | 12.9%
CC1=C(C(=O)N2CCOCC2)CC(CC(=O)NCc2cccs2)C(=O)N1Cc1ccccc1 (stereo not drawn) | -8.4% | 10.2%
Cc1ccc2c(c1)C1C=CCC1C(C(=O)NCCCN1CCOCC1)N2 (stereo not drawn) | -8.9% | 2.5%
CC1(C(=O)Nc2cnc3ccccc3c2)CCN1C(=O)CC(c1ccccc1)c1ccccc1 (stereo not drawn) | ? | 2.2%
O=C1NC[C@H](CCCCN2CCN(CCc3ccccc3)C(=O)C2=O)N(CCC2CCCCC2)C1=O | -9.6% | -6.9%
COc1cccc(NC(=O)C2(C)CCN2Cc2ccc(OC)c3ccccc23)c1 (stereo not drawn) | 0.0% | -15.5%[18.4 µM]
O=C(NC1CCCCC1)C(C1CC1)n1c(=O)c(-c2ccco2)nc2ccccc21 (stereo not drawn) | 10.8% | -5.7%
Cc1cc2nc(C(C)(C)C)c(Cc3ccsc3)n2c(C)c1Br | -20.6% | 3.3%
CC1(C(=O)NS(=O)(=O)c2ccc(Cl)cc2)CCN1C(=O)Cc1cccc2ccccc12 (stereo not drawn) | -18.5% | -8.7%
CC(C)(C)NC(=O)C1c2ccccc2OCC(=O)N1Cc1ccc2c(c1)OCO2 (stereo not drawn) | 7.7% | 4.8%
CN(C(=O)c1cccc(NC(=O)Cc2cccc(NC(=O)C3CCN(C(=O)c4ccccc4)CC3)c2)c1)C1CC1 | -19.5% | -0.3%
CN1C(=O)c2c(C(=O)Nc3ccc(Oc4ccncc4)cc3)[nH]c(-c3ccccc3)c2C1=O | -28.2% | -9.4%
Cc1c(NS(=O)(=O)c2cc(C(=O)NCc3cccc(Cl)c3)ccc2Cl)c(=O)n(-c2ccccc2)n1C | 7.7% | -6.5%
COc1ccc(C(C)=O)cc1CON=C1CSCc2ccccc21 | -4.7% | 8.8%
CCC(=O)Nc1ccc2c(c1)OC[C@@H](C)N(C(=O)c1ccccn1)C[C@@H](C)[C@@H](OC)CN(C)C2=O | -13.5% | 5.8%
CCCCC[C@@H](C)N1C[C@H](COCc2ccccc2)Oc2cc(N3CCC[C@H]3COC)ccc2S1(=O)=O | 14.2% | 24.8%
N#CC1c2ccccc2-n2nncc2CN1S(=O)(=O)c1cc(Cl)cc(Cl)c1 (stereo not drawn) | -3.4% | -13.0%
COc1ccc(CN2[C@@H](CC(C)=O)c3cc(C(F)(F)F)ccc3S2(=O)=O)cc1 | -22.0% | 5.4%
SMILES | StopGo reporter | RE007 growth inh
CCCCC[C@@H](C)N1C[C@H](COCc2ccccc2)Oc2cc(N3CC[C@@H](O)C3)ccc2S1(=O)=O | 3.7% | -9.2%
Cc1cccc(CN2CCN(C3CN(Cc4cn(Cc5cc(C)cc(C)c5)nn4)S(=O)(=O)C3)CC2)c1 (stereo not drawn) | ? | -19.1%
COCC(=O)Nc1ccc2c(c1)[C@@H]1C[C@H](CC(=O)NCc3cccc(F)c3)O[C@@H](CO)[C@@H]1O2 | -22.5% | -11.5%
COc1cccc(-c2cnc3c(NC(C)=O)cc(-c4ccncc4)cn23)c1 | -8.7% | -6.8%[18.4 µM]
Cc1ccc(NC(=O)c2ncn(CCCNCC3CCCO3)n2)cc1C (stereo not drawn) | -4.3% | 3.6%
O=C(Nc1ccc(F)c(Cl)c1)Nc1nnc([C@@H]2O[C@H](CO)[C@@H](O)[C@H]2O)s1 | -10.8% | 7.6%
COC(=O)c1cc2c([nH]c1=O)CCCC2=O | 0.0% | -13.0%
Cc1cc(F)ccc1C(O)c1ncc(-c2ccccc2)[nH]1 (stereo not drawn) | 57.3%[activator] | -19.5%
COc1cc(NC(=O)COC(=O)C2CC(O)CN2S(=O)(=O)c2ccc(Cl)cc2)c(C)cc1[N+](=O)[O-] (stereo not drawn) | -16.9% | 2.6%
COc1cc(OC)cc(C(=O)NCC(=O)NCCN2C(=O)S/C(=C\c3ccc4c(c3)OCO4)C2=O)c1 | -4.1% | 0.8%
C/C=C/c1cnc2c(c1)C(=O)N([C@H](C)CO)C[C@@H](C)[C@@H](CN(C)C(=O)NC1CCCC1)O2 | -10.6% | -6.3%
CCN1C[C@@H]2[C@@H]3C(=O)N(C)C(=O)[C@@H]3[C@](C)(C1=O)N2C(=O)c1ccc(Br)cc1 | -17.8% | -0.6%
COCCN(C(=O)c1ccco1)c1nc(-c2ccc(OC)cc2)cs1 | 3.9% | 12.0%
COc1ccc(CN2CCC3CC2c2cc(-c4cccc(C)c4)ccc23)cc1 (stereo not drawn) | ? | -17.3%
CC/C(=N/N=C(/CC)c1ccc(O)cc1)c1ccc(O)cc1 | 19.6% | 8.0%
CC(C)(C)c1ccc(C(=O)N2CCC2(C)C(=O)Nc2ccc3nc[nH]c3c2)cc1 (stereo not drawn) | ? | 9.3%
O=C(c1ccoc1)N1CCN(c2cc(-c3cccnc3)nc3cc(-c4cccc(Cl)c4)nn23)CC1 | -15.0% | -24.2%
COC(=O)[C@@]12C[C@@H](CC(=O)N3CCSCC3)C(=O)N(Cc3ccco3)C1=CCC(C)(C)C2 | -8.0% | -1.8%
O=S(=O)(c1ccc(NC(=S)N2CCCCC2)cc1)N1CCCCC1 | 19.3% | -4.0%
O=C1NC[C@@H](CCCCN2C[C@H](Cc3ccc(O)cc3)N(CCC3CCCCC3)C(=O)C2=O)N(CC2CCCCC2)C1=O | 33.8%[activator] | 19.6%

In the list so far, four contain a cyano group.
SMILES | StopGo reporter | RE007 growth inh
N#Cc1ccc(COC(=O)c2ccc3c(c2)OCO3)cc1 | -0.9% | -3.2%
COc1ccc(C(=O)N2CCN(c3nc4cc(C)cc(C)c4cc3C#N)CC2)cc1 | -14.4% | 3.0%
CC1(Cc2ccccc2C#N)C(=O)Nc2ccc(OC(F)(F)F)cc21 (stereo not drawn) | -20.5% | -0.4%[18.4 µM]
N#CC1c2ccccc2-n2nncc2CN1S(=O)(=O)c1cc(Cl)cc(Cl)c1 (stereo not drawn) | -3.4% | -13.0%
